VACV Venus inh = vaccinia inhibition (Venus reporter); Vaccinia virus Venus reporter expression, fluorescence; Potency, µM (doses to about 36.5 µM), inactives show top-dose activity change, negative = inhibition, hits mostly inhibitors; 0.46% of 330,000 active; active means well fitted inhibition curve with a large enough effect; inconclusive means small, poorly fitted or top-dose-only effect; inactive means no such curve, though single readings can be large or run the other way; tested in A549 cells; further: nearly all actives have a fitted effect of over 30% in size; inactives centre near -10
VACV mCherry inh = inhibitors of vaccinia virus infection (mCherry reporter signal); Vaccinia virus mCherry reporter infection, fluorescence; about a quarter of the inactives have no number; Potency, µM (highest dose often 36.5 µM), inactives show at the highest dose activity change, negative = inhibition, most hits filed as inhibitors; 0.63% of 310,000 active; active = well fitted inhibition curve with a large enough effect; inconclusive = small, poorly fitted or top-dose-only effect; inactive = no such curve, though single readings can be large or run the other way; tested in A549 cells; further: nearly all actives have a fitted effect of over 35% in size; inactives centre near -10
* = called active by the depositor; i = inactive; ? = inconclusive; · = no result given; [ ] = remark or other dose. On the % scale 0 is the no-effect control and ±100 the full control effect; potency means the concentration at half of the fitted maximal effect. Outcome played no part in choosing rows; overall some 0.87% were active at least once.

SMILES | VACV Venus inh | VACV mCherry inh
CCOC(=O)c1c(C)oc2nc(C)nc(NCCCN3CCN(c4ccccc4OC)CC3)c12 | -9.6% | -22.3%
COc1ccc(S(=O)(=O)N2CCC(C(=O)NC(C)c3ccccc3)CC2)cc1 (centres undefined) | 3.2% | -15.4%
COc1cc2c(cc1OC)CN(C(=O)/C=C/c1ccc([N+](=O)[O-])cc1)CC2 | 5.2% | -23.5%
CN(C)C=Nc1nonc1N | 17.9% | ·
CC(C)(C)C(=O)CN1C(=O)C2(OCCO2)c2ccccc21 | -8.9% | ·
CCC(O)c1nc2ccccc2n1CCOc1cc(C)cc(C)c1 (centres undefined) | -18.7% | -1.2%
CC(=O)N1c2ccccc2Nc2ccccc21 | 9.1% | -3.6%
CC(=O)C[C@@H]1OC[C@H](C(C)C)N1S(=O)(=O)c1ccc(C)cc1 | 2.0% | -15.0%
Nc1cc(N)nc(SCC(=O)Nc2ccc3c(c2)OCO3)n1 | -0.9% | -3.2%
O=C(Cn1ncc2c1-c1ccccc1OC2)Nc1nc2ccccc2s1 | -6.7% | 5.4%
CCOc1ccccc1NC(=O)N1CCCC1C(=O)Nc1ccc(NC(C)=O)cc1 (centres undefined) | -1.8% | -9.7%
Cc1ccc(-c2nc3ccc(Cl)cn3c2Cc2ccccc2)cc1 | -19.3% | i
COc1ccc(NC(=O)C2CCCN(c3cnccn3)C2)c(OC)c1 (centres undefined) | -0.5% | -2.8%
COC(=O)CC1C(=O)NCCN1C(=O)CSc1nc2ccccc2o1 (centres undefined) | -3.7% | -19.8%
COc1ccccc1N1CCN(Cc2nc(-c3ccc(F)cc3)oc2C)CC1 | -21.8% | -15.0%
Cc1cc(C)cc(OCC(=O)NCC2(N(C)C)CCCCC2)c1 | -4.6% | -3.6%
COc1cccc(-c2cnc(C(O)c3c(C)cc(C)cc3C)[nH]2)c1 (centres undefined) | -10.6% | i
CC(C)(C)NC(=O)C(c1cccs1)N(C(=O)C(=O)NC1CCCC1)c1ccccc1F (centres undefined) | -7.8% | -16.2%
Cn1c(=O)c2[nH]c(SCCN3CCOCC3)nc2n(C)c1=S | -10.0% | -5.1%
Cc1ccc2nc(-c3ccc(NC(=O)COc4ccc(Cl)c(C)c4)cc3)sc2c1 | -3.4% | -5.9%
Cc1ccnc(NC(=O)CCC(=O)N(CC(=O)NCc2ccccc2)c2ccc3c(c2)OCO3)c1 | -15.0% | -20.8%
CC(C)(C)OC(=O)N1CCC(CNC(=O)c2ccc(F)cc2F)CC1 | -12.1% | -1.4%
CCN(CC)c1ccc(NC(=O)C2CCN(S(=O)(=O)c3c(C)noc3/C=C/c3ccccc3F)CC2)c(C)c1 | -10.5%[7.34 µM] | -13.6%[7.34 µM]
CC(C)(C)NS(=O)(=O)c1ccc2[nH]c3c(c2c1)CCCCC3 | -12.5% | -20.8%
C=CCSc1nc(O)c(C2OC(=O)c3c2ccc(OC)c3OC)c(=O)n1-c1ccccc1 (centres undefined) | 0.0%[7.34 µM] | i[7.34 µM]
CN(Cc1ccccc1)S(=O)(=O)c1ccc(F)c(C(=O)Nc2ccccc2C(F)(F)F)c1 | -1.9% | 7.2%
Cc1cc(C)cc(NC(=O)CSCn2nnc3c(=O)[nH]c(Cc4ccc(F)cc4)nc32)c1 | -14.9% | -13.0%
CCc1cc(=O)oc2c3c(cc(OCC(=O)NCc4ccccn4)c12)OC(C)(C)CC3 | -6.8% | -1.9%
CCCCNc1c(-c2ccc(SC3CCCCC3)c(OC)c2)nc2ccc(Cl)cn12 | -15.7% | -11.1%
C=CCNC(=O)NC(=O)COC(=O)CC(NC(N)=O)c1ccc(Cl)cc1 (centres undefined) | -15.1% | -6.1%
O=C(NC1CCN(Cc2ccc3ccccc3c2)CC1)c1ccccc1 | -14.4% | -10.2%
CN(C)C(=S)Nc1cccc(-c2n[nH]c(=S)o2)c1 | -10.9% | -14.9%
O=C(C1=C[C@@H](c2ccc(C(F)(F)F)cc2)C[C@@H](OCCCCO)O1)N1CCCCCCC1 | -20.4% | i
COc1ccc(CC(=O)Nc2cccc(SC)c2)cc1OC | -15.6% | i
CCn1cc(S(=O)(=O)c2ccc(C)cc2C)c(=O)c2cc(F)c(N3CCCCC3)cc21 | -12.8% | -17.3%
NS(=O)(=O)c1ccc(CCNC(=O)c2ccc[nH]c2=S)cc1 | -8.1% | -6.7%
CC1=C(C(=O)Nc2ccccc2)C2(CCCCC2)C(C#N)=C(S)N1 | -6.3% | ·
COCCNC(=O)C1CCCN(Cc2ccccc2F)CC1 (centres undefined) | -3.3% | 2.2%
CC(C)c1cccc(C(C)C)c1OCCCCN1CCCC1 | -10.5% | -20.9%
CCNc1c(NC(=O)c2cccs2)c(=O)oc2ccccc12 | -16.5% | 0.9%

Reprinted from the entries so far for reference:
SMILES | VACV Venus inh | VACV mCherry inh
O=C(NC1CCN(Cc2ccc3ccccc3c2)CC1)c1ccccc1 | -14.4% | -10.2%
CN(C)C(=S)Nc1cccc(-c2n[nH]c(=S)o2)c1 | -10.9% | -14.9%

(cont.)
SMILES | VACV Venus inh | VACV mCherry inh
Cc1c(N2C(=O)/C(=C/c3cccc4ccccc34)SC2=S)c(=O)n(-c2ccccc2)n1C | -13.0% | i
COc1ccc(N(C(C)C(=O)Nc2ccc(S(=O)(=O)N3CCCCC3)cc2)S(C)(=O)=O)cc1 (centres undefined) | -15.6% | -13.6%
O=C(NCc1ccccc1)C(c1ccccn1)N(C(=O)c1csnn1)c1ccccc1F (centres undefined) | -4.4% | -15.8%
COc1ccc(N2CC(C(=O)N[C@H](C(=O)NC3CCCC3)C(C)C)CC2=O)cc1 (some centres undefined) | -1.6% | i
O=C(CN(c1ccc(F)cc1)S(=O)(=O)c1ccc2c(c1)OCCO2)Nc1ccc2c(c1)OCO2 | 21.7% | 15.1%
O=C(NCCO)C(O)C(O)C(=O)NCCO (centres undefined) | -8.0% | -1.2%
O=C(CCc1nc2ccccc2c(=O)[nH]1)NNC(=O)c1cccc(Cl)c1 | -4.9% | -14.3%
CC(C)C(=O)NC(=S)N(Cc1ccccc1)Cc1ccccc1 | -7.7% | i
CCOC(=O)N/N=C/c1c(C)nn(-c2ccccc2Cl)c1Cl | -6.7% | -9.3%
Cc1cccc2[nH]c(CN(C)Cc3nc(CC4CC4)no3)nc12 | 1.2% | i
Cc1cccc(OCC(=O)OCc2cc(=O)n3nc(-c4cccs4)sc3n2)c1 | 2.8% | -13.2%
CC(Sc1cn(CCNC(=O)c2ccccc2F)c2ccccc12)c1ccccc1 (centres undefined) | -13.2% | -15.1%
COc1ccc(-n2nc(C(N)=O)nc2-c2ccccc2)cc1 | -4.5% | -11.0%
Cc1ccccc1C(=O)N1CCN(c2ccccn2)CC1 | -9.8% | ·
O=C(Nc1ccc(-c2ccc3nncn3n2)cc1)C1CCCC1 | 9.0% | 1.2%
CC(C)(C)c1cnnn1-c1ccc(-c2csc(N)n2)cc1 | -25.0% | ?
Cc1ccc(C)c(NC(=S)N2CCCC2)c1 | -5.6% | i
Cc1cccc(C(=O)Nc2ccc(NC(=O)c3ccccc3)cc2)c1 | -19.1% | i
Cn1c(=O)c2c(nc(NCCc3ccccc3)n2Cc2ccc(F)cc2)n(C)c1=O | ? | ?
O=Cc1ccc(Oc2cc(-c3ccccc3)nc(-c3ccccc3)n2)cc1 | -11.4% | -14.4%
CC(NC(=O)COC(=O)/C=C/c1ccc([N+](=O)[O-])cc1)c1ccccc1 (centres undefined) | -8.4% | -4.5%
CCn1c(SCC(=O)Nc2cccc(NC(=O)c3ccco3)c2)nnc1-c1cccs1 | -24.7% | ·
CCCc1c(C)nc2scc(-c3ccc(Cl)cc3)n2c1=O | -6.5% | -13.2%
CS(=O)(=O)N(CC(=O)NCc1ccncc1)Cc1ccc(Cl)cc1 | -13.3% | -14.0%
Cc1cccc(NC(=O)COC(=O)C2C3CC4OC(=O)C2C4C3)c1C (centres undefined) | -17.9% | i
COc1ccc(OC)c2sc(NC(=O)c3ccc(S(=O)(=O)N4CCCC4)cc3)nc12 | -30.0% | -26.1%
O=c1[nH]c(=O)n(C2CCCCC2)c(O)c1/C=N/N1CCCCC1c1cccnc1 (centres undefined) | -13.9% | -2.3%
CN1CCC(=NNC(=O)c2ccco2)CC1 | -0.6% | i
CCCOC(=O)c1cccc(Nc2nc(-c3cccnc3)nc3ccccc23)c1 | ? | ?
COc1ccc(N(C(=O)c2cccnc2)S(=O)(=O)c2ccc3c4c(cccc24)C(=O)N3C)cc1 | -22.6% | -29.9%
Cn1c(C(=O)NCCOc2ccccc2Cl)cc(=O)n(C)c1=O | -19.7% | -19.5%
O=C(Nc1ccccc1C(=O)N1CCOCC1)c1ccco1 | -6.0% | ·
CCOc1ccc2nc(SC(CC)C(=O)Nc3cc(C)on3)sc2c1 (centres undefined) | -15.0% | -11.3%[1.46 µM]
Cc1cc(Cl)ccc1C(O)c1ncc(-c2cccc(C(F)(F)F)c2)[nH]1 (centres undefined) | -28.2% | ?
COc1ccc(S(=O)(=O)Nc2cc3c4c(c2)CC(=O)N4CCC3)cc1OC | -22.3% | i
O=C(NCc1cccnc1)c1nn(-c2ccc(F)cc2)nc1CO | -8.8% | -2.5%
Fc1ccc(-c2nnc(-c3ccc4ccccc4c3)o2)cc1 | -3.6% | i
CC(OC(=O)CSCC(=O)Nc1ccc(Cl)cc1)C(=O)N(C)Cc1ccccc1 (centres undefined) | -2.5% | -8.9%
O=c1c2ccccc2[nH]c(=S)n1-c1cccc(S(=O)(=O)N2CCCC2)c1 | -10.8% | i
CC(C)=C1SC(N2CCCCC2)=NC1=O | -13.8% | ·
Cc1cccc(C(=O)NCCCNC(=O)c2ccc(C)nc2)c1 | 14.7% | -13.5%
O=C1c2cccc3cccc(c23)C(=O)N1/N=C/c1c(O)n(-c2ccccc2)c(=O)[nH]c1=O | -3.3% | i
Cc1ccc(C)c(Cn2nnc(C(=O)NCc3ccccc3)c2N)c1 | -4.4% | -13.2%
C#CCOCCOCCOCCNc1nc(N2CCN(C(=O)[C@H](CCC(=O)O)n3cc([C@@H](N)CCCCN)nn3)CC2)nc(N2CCN(C(=O)[C@H](CCC(=O)O)n3cc([C@@H](N)CCCCN)nn3)CC2)n1 | -6.0% | i
Cc1cc(Br)ccc1NC(=O)CN1C(=O)C2C3CC(c4ccccc4)C(C3)C2C1=O (centres undefined) | ? | ?
CCOc1ncccc1C(=O)Nc1ccc(S(=O)(=O)NC2=NCCCCC2)cc1 | -3.3% | i
COc1ccc(CN2CCN(C3CCC3)CC2CCO)c(C)c1C (centres undefined) | -16.8% | -17.5%
O=C(Cc1ccccc1)NCCc1cnc[nH]1 | 2.1% | i
C[N+]1(C)C2CC[C@H]1CC(OC(=O)C(CO)c1ccccc1)C2 (some centres undefined) | -12.5% | i
Cc1cc(C)nc(SCCS(=O)Cc2ccc(Cl)cc2)n1 (centres undefined) | -22.9% | ·

Full records, looked up by structure:
Shown for CCOC(=O)N/N=C/c1c(C)nn(-c2ccccc2Cl)c1Cl : VACV Venus inh: -6.7%; VACV mCherry inh: -9.3%
Shown for Cc1ccc(C)c(Cn2nnc(C(=O)NCc3ccccc3)c2N)c1 : VACV Venus inh: -4.4%; VACV mCherry inh: -13.2%

(continued)
SMILES | VACV Venus inh | VACV mCherry inh
COc1cc(CC(NC(C)=O)C(=O)NC2CCN(C(=O)Nc3ccc(C)cc3)CC2)cc(OC)c1 (centres undefined) | -10.8% | -20.1%
Cc1sc(NC(=O)CSc2nnnn2C)c(C#N)c1C | -22.6% | i
CCCN1CNC(=S)N(c2ccccc2OCC)C1 | -5.4% | i
Cc1ccc(NC(=O)NNC(=O)COc2ccc3ccccc3c2)cc1 | -2.0% | -9.7%
COc1ccc(NC(=O)CS(=O)(=O)Cc2ccccc2)c([N+](=O)[O-])c1 | -6.1% | -6.6%
Cc1ccc(C(C)C)c(OCC(=O)Nc2ccc(C(=O)OC3CCCCC3)cc2)c1 | -11.5% | -5.5%
Cc1ccc(C(=O)Cn2cnc3ccccc3c2=O)cc1C | -17.4% | -26.3%[1.46 µM]
O=C(CCN1CCOCC1)c1ccc(N2CCCCC2)cc1 | ? | ?
O=C(CCC1CCCC1)N1CCc2c([nH]c3ccccc23)C1c1ccc(F)cc1 (centres undefined) | 0.9% | -4.7%
C=CCC1(CC=C)CC(Cc2cnccn2)N(C(=O)OC(C)(C)C)C1 (centres undefined) | -15.0% | i
O=c1[nH]cc(S(=O)(=O)N2CCCc3ccccc32)c(=O)[nH]1 | 1.3% | 2.1%
CC(OC(=O)c1cc(=O)[nH]c2ccccc12)C(=O)NCc1ccccc1 (centres undefined) | -9.0% | -14.0%
Cc1ccc(S(=O)(=O)N2CCOCC2)cc1C(=O)NCCCN1CCCC1=O | -13.3% | i
O=C(O)c1ccc(N=C2c3ccccc3-c3ccccc32)cc1 | -5.4% | i
COCCNC(=O)C1(C)CCN(C(=O)c2ccc3ccccc3n2)C1 (centres undefined) | -10.4% | i
Cn1c(=O)oc2cc(S(=O)(=O)N3CCC(C(=O)Nc4ccc(OC(F)(F)F)cc4)CC3)ccc21 | ? | ?
Cc1onc(-c2c(Cl)cccc2Cl)c1C(N)=O | 1.9% | -16.2%
CCN(CC)CCN(Cc1cc2cccc(C)c2[nH]c1=O)C(=S)Nc1ccccc1 | -0.1% | i
CS(=O)(=O)Nc1cccc(-c2cnc3ccccc3n2)c1 | -24.2% | 0.1%
O=C(O)c1ccc(N2C(=O)Nc3ccccc3N2O)cc1 | -5.4% | i
Cn1c(=O)c2c(-c3ccccc3)n(Cc3cccnc3)cc2n(C)c1=O | -10.2% | ·

High-throughput results from PubChem.
